Vaccinia inh – blocks a specific stage of Vaccinia orthopoxvirus infection; Vaccinia-infected cells, mCherry/Venus stage reporter fluorescence; active compounds read low; some inactives read as strong as hits; activity change (mCherry), % (concentration not given with the values); hit rate 0.01% among 89,000; AID 1053133;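 active = mCherry past -33% and 40 or more points under the early reporter, replicates agreeing; inconclusive = past -33% without that gap or agreement; tested in A549 cells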;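 note: scaled between vehicle wells and reference inhibitor wells; 23 nL library stock went into each well; one replicate is shown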
Vaccinia inh Venus – recorded beside Vaccinia inh, whose call it bears; activity change (Venus), %; measured here: Venus reporter, other viral stage;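 negative = less Venus signal; first of two replicates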
Active calls of the source: *; u = inconclusive; x = no result given. A portion of the library (hit frequency here may not be typical).

SMILES	Vaccinia inh	Vaccinia inh Venus
C[C@@H]1CN([C@H](C)CO)C(=O)c2cc(NC(=O)Nc3ccccc3)ccc2O[C@H]1CN(C)Cc1ccc(C(F)(F)F)cc1	-32	-18
CO[C@H]1CN(C)C(=O)c2ccc(NS(=O)(=O)c3ccc(C)cc3)cc2OC[C@H](C)NC[C@@H]1C	4	4
COc1ccc(CN(C)C[C@H]2Oc3c(NC(=O)Nc4ccc(F)cc4)cccc3C(=O)N([C@H](C)CO)C[C@@H]2C)cc1	0	-2
CCCNC(=O)N[C@H]1CC[C@@H](CCNS(=O)(=O)c2cccc(F)c2)O[C@@H]1CO	20	17
C/C=C/c1cnc2c(c1)C(=O)N([C@H](C)CO)C[C@H](C)[C@H](CN(C)C(=O)NC1CCCC1)O2	2	2
C[C@@H]1CN([C@H](C)CO)S(=O)(=O)c2ccc(C#CC3CCCC3)cc2O[C@@H]1CN(C)C(=O)Cc1ccccc1	u	x
CN(C)C(=O)C[C@@H]1CC[C@@H]2[C@H](COC[C@H](O)CN2S(=O)(=O)c2ccccc2Cl)O1	24	12
Cc1cccc(-c2ccccc2[C@@H]2[C@H](C#N)N(c3ncc(-c4ccccc4)s3)[C@H]2CO)c1	-4	2
O=C(C[C@@H]1C=C[C@H](NS(=O)(=O)c2ccccc2)[C@@H](CO)O1)N1CCc2ccccc2C1	6	-3
O=C(N[C@@H]1C=C[C@@H](CC(=O)N2CCc3ccccc3C2)O[C@@H]1CO)C1CCC1	3	0
C[C@H](CO)N1C[C@H](C)[C@H](CN(C)C(=O)Nc2ccc(F)cc2)Oc2c(NC(=O)NC3CCCCC3)cccc2C1=O	-13	-11
CNC[C@@H]1OCCCC[C@@H](C)Oc2ccc(NS(=O)(=O)c3ccc(C)cc3)cc2C(=O)N([C@H](C)CO)C[C@H]1C	7	5
O=C(Cc1cccnc1)N1CCCCN2[C@@H](CO)[C@@H](c3ccc(C#CC4CC4)cc3)[C@@H]2C1	-5	-8
CO[C@H]1CN(C)C(=O)c2ccc(NC(=O)CC(F)(F)F)cc2OC[C@@H](C)N(C(=O)c2ccccc2F)C[C@H]1C	26	31
CC(C)NC(=O)N(C)C[C@@H]1OCc2ccccc2-c2c(n(C)c3ccccc23)C(=O)N([C@H](C)CO)C[C@H]1C	3	-5
C[C@H](CO)N1C[C@H](C)[C@@H](CN(C)S(=O)(=O)c2ccccc2)Oc2ccc(NS(=O)(=O)c3ccc(Cl)cc3)cc2CC1=O	-27	-18
O=C(C[C@@H]1C[C@H]2c3cc(NC(=O)C4CCC4)ccc3O[C@H]2[C@@H](CO)O1)NCc1ccccc1	6	1
Cc1ccc(S(=O)(=O)Nc2ccc3c(c2)CC(=O)N([C@@H](C)CO)C[C@@H](C)[C@@H](CN(C)C(=O)Nc2ccc4c(c2)OCO4)O3)cc1	12	5
COc1ccc(-c2ccc3c(c2)O[C@H](CN(C)C(=O)c2ccccc2F)[C@@H](C)CN([C@@H](C)CO)S3(=O)=O)cc1	u	x
C/C=C/c1ccc([C@H]2[C@H]3CN(C(=O)Nc4cccc(OC)c4)CC(=O)N3[C@H]2CO)cc1	-17	-21
C[C@@H]1CN([C@H](C)CO)C(=O)Cc2cc(NS(=O)(=O)c3ccc(Cl)cc3)ccc2O[C@@H]1CN(C)Cc1ccc(Cl)c(Cl)c1	u	x
CCCN1C[C@@H](C)[C@H](OC)CN(C)C(=O)c2cc(NC(=O)c3ccccc3F)ccc2OC[C@@H]1C	2	4
CCCNC(=O)Nc1ccc2c(c1)OC[C@@H](C)N(Cc1cncnc1)C[C@H](C)[C@@H](OC)CN(C)C2=O	11	14
C[C@H](CO)N1C[C@H](C)[C@H](CN(C)Cc2ccc(Cl)c(Cl)c2)Oc2c(NC(=O)Nc3cccc4ccccc34)cccc2C1=O	-26	-17
C[C@@H]1CN([C@H](C)CO)C(=O)c2cc(NC(=O)CCC(F)(F)F)ccc2O[C@H]1CN(C)C	-3	-3

Exported field by field: part of the list above
C/C=C/c1ccc([C@H]2[C@H]3CN(C(=O)Nc4cccc(OC)c4)CC(=O)N3[C@H]2CO)cc1
  Vaccinia inh: -17 | Vaccinia inh Venus: -21

C[C@@H]1CN([C@H](C)CO)C(=O)Cc2cc(NS(=O)(=O)c3ccc(Cl)cc3)ccc2O[C@@H]1CN(C)Cc1ccc(Cl)c(Cl)c1
  Vaccinia inh: u | Vaccinia inh Venus: x

CCCN1C[C@@H](C)[C@H](OC)CN(C)C(=O)c2cc(NC(=O)c3ccccc3F)ccc2OC[C@@H]1C
  Vaccinia inh: 2 | Vaccinia inh Venus: 4

CCCNC(=O)Nc1ccc2c(c1)OC[C@@H](C)N(Cc1cncnc1)C[C@H](C)[C@@H](OC)CN(C)C2=O
  Vaccinia inh: 11 | Vaccinia inh Venus: 14

Continued.
SMILES	Vaccinia inh	Vaccinia inh Venus
FC(F)(F)c1cccc(CN2[C@@H]3CNC[C@H]2C3c2ccc(-c3ccncc3)cc2)c1 (some centres undefined)	-4	0
COCC(=O)N1C[C@@H]2[C@H](c3ccccc31)[C@@H](CO)N2C(=O)c1ccccc1F	13	14
COCC(=O)Nc1ccc2c(c1)OC[C@H](C)N(C(=O)NC(C)C)C[C@H](C)[C@H](OC)CN(C)C2=O	16	15
C/C=C/c1ccc([C@H]2[C@@H](CO)N(Cc3cncnc3)C23CN(C(=O)CC2CC2)C3)cc1	6	5
COc1cccc(-c2ccc3c(c2)O[C@H](CN(C)Cc2ccncc2)[C@@H](C)CN([C@@H](C)CO)S3(=O)=O)c1	-17	-9
O=C(C[C@H]1C=C[C@@H](NC(=O)C2CCOCC2)[C@H](CO)O1)Nc1ccc(-c2ccccc2)cc1	0	-3
C[C@@H]1CCCCO[C@@H](CN(C)S(=O)(=O)c2cccs2)[C@H](C)CN([C@@H](C)CO)C(=O)c2cc(NS(=O)(=O)c3ccccc3)ccc2O1	u	x
O=C(C[C@@H]1CC[C@H]2[C@@H](COC[C@@H](O)CN2CCC(F)(F)F)O1)N1CCC(Cc2ccccc2)CC1	-23	-17
COc1ccc2c3c(n(C)c2c1)[C@H](CO)N(Cc1ccncc1)CC31CN(C(=O)C2CC2)C1	6	0
C[C@@H]1CN([C@H](C)CO)C(=O)c2cc(-c3ccc(C#N)cc3)cnc2O[C@@H]1CN(C)CC1CCOCC1	8	6
C[C@H](CO)N1C[C@H](C)[C@@H](CN(C)CC2CC2)Oc2ccc(NC(=O)Nc3cccc4ccccc34)cc2CC1=O	-24	-18
C[C@H](CO)N1C[C@H](C)[C@H](CN(C)CC2CC2)Oc2ccc(NS(=O)(=O)c3cn(C)cn3)cc2C1=O	16	13
O=C(C[C@H]1CC[C@H](NC(=O)C2CCOCC2)[C@@H](CO)O1)Nc1ccccc1	-1	1
C[C@H]1CCCCO[C@H](CN(C)Cc2ccc(Cl)c(Cl)c2)[C@@H](C)CN([C@@H](C)CO)C(=O)c2cc(NC(=O)Cc3ccccc3)ccc2O1	u	x
O=C(CN1CCOCC1)NCC[C@H]1CC[C@@H](NS(=O)(=O)c2ccc(Cl)cc2)[C@H](CO)O1	0	4
C[C@@H]1CN([C@@H](C)CO)C(=O)c2cc(NC(=O)NC3CCCCC3)ccc2O[C@H]1CN(C)Cc1ccc(C(F)(F)F)cc1	-21	-15
C[C@H](CO)N1C[C@H](C)[C@@H](CN(C)S(=O)(=O)c2ccc(C#N)cc2)OCc2ccccc2-c2ccccc2C1=O	20	12
COc1ccccc1S(=O)(=O)N[C@@H]1CC[C@H](CC(=O)N2CCOCC2)O[C@H]1CO	14	16
Cc1noc(C)c1S(=O)(=O)Nc1ccc2c(c1)C(=O)N([C@@H](C)CO)C[C@H](C)[C@@H](CN(C)C(=O)Nc1ccccc1)OCCCC[C@@H](C)O2	-28	-22
CCCNC(=O)Nc1ccc2c(c1)OC[C@@H](C)N(Cc1ccccc1)C[C@H](C)[C@@H](OC)CN(C)C2=O	-18	-29
Cc1noc(C)c1NC(=O)N(C)C[C@H]1Oc2ccc(NC(=O)NC3CCCCC3)cc2C(=O)N([C@H](C)CO)C[C@H]1C	11	5
C[C@H](CO)N1C[C@H](C)[C@@H](CN(C)Cc2ccc(C(F)(F)F)cc2)OCCCC[C@H](C)Oc2ccc(NC(=O)CCC(F)(F)F)cc2C1=O	u	x
C[C@@H]1CN([C@H](C)CO)C(=O)c2cccc(NC(=O)c3cnccn3)c2O[C@H]1CN(C)C(=O)Nc1ccc2c(c1)OCO2	7	5
C[C@H]1CN([C@@H](C)CO)C(=O)Cc2cc(NC(=O)CCCCCC(=O)Nc3ccccc3N)ccc2O[C@H]1CN(C)S(=O)(=O)c1ccccc1	4	-2
C[C@@H]1CN([C@H](C)CO)C(=O)c2cccc(NC(=O)c3cnccn3)c2O[C@H]1CN(C)S(C)(=O)=O	11	4

3 structures already listed, ordered by length of the SMILES, rising:
SMILES	Vaccinia inh	Vaccinia inh Venus
COc1ccccc1S(=O)(=O)N[C@@H]1CC[C@H](CC(=O)N2CCOCC2)O[C@H]1CO	14	16
O=C(CN1CCOCC1)NCC[C@H]1CC[C@@H](NS(=O)(=O)c2ccc(Cl)cc2)[C@H](CO)O1	0	4
C[C@@H]1CN([C@H](C)CO)C(=O)c2cccc(NC(=O)c3cnccn3)c2O[C@H]1CN(C)C(=O)Nc1ccc2c(c1)OCO2	7	5

Remaining list, next part:
SMILES	Vaccinia inh	Vaccinia inh Venus
CNC[C@H]1Oc2cc(Br)ccc2S(=O)(=O)N([C@H](C)CO)C[C@@H]1C	-3	1
Cc1noc(C)c1S(=O)(=O)N(C)C[C@@H]1OCCCC[C@@H](C)Oc2ccc(NC(=O)Nc3ccccc3)cc2C(=O)N([C@@H](C)CO)C[C@@H]1C	20	12
C[C@H](CO)N1C[C@H](C)[C@H](CN(C)C(=O)Cc2ccccc2)Oc2ncc(C3=CCCCC3)cc2C1=O	-2	-7
O=C(C[C@@H]1CC[C@H]2[C@@H](COC[C@H](O)CN2Cc2ccccc2)O1)NCc1ccccc1Cl	-9	-9
C[C@H]1CN([C@@H](C)CO)C(=O)c2cc(NS(=O)(=O)c3cccs3)ccc2O[C@@H]1CN(C)S(C)(=O)=O	31	17
O=C(C[C@@H]1CC[C@H]2[C@@H](COC[C@@H](O)CN2S(=O)(=O)c2ccc(Cl)cc2)O1)NCCN1CCCC1	14	20
Cc1ccc(S(=O)(=O)N[C@@H]2CC[C@H](CCNC(=O)c3ccc4c(c3)OCO4)O[C@@H]2CO)cc1	-20	-16
C[C@H]1CN([C@@H](C)CO)C(=O)Cc2cc(NC(=O)NC3CCCCC3)ccc2O[C@H]1CN(C)Cc1ccccc1	u	x
CCC(=O)N(C)C[C@H]1Oc2ncc(C#Cc3ccccc3OC)cc2C(=O)N([C@H](C)CO)C[C@H]1C	-8	-8
O=C(C1CCC1)N1CC(=O)N2[C@H](CO)[C@@H](c3ccc(-c4ccccc4F)cc3)[C@H]2C1	u	x
C[C@@H]1CCCCO[C@@H](CN(C)C(=O)Nc2ccc(F)cc2)[C@H](C)CN([C@H](C)CO)C(=O)c2cc(NC(=O)NC3CCCCC3)ccc2O1	-24	-15
C[C@H]1CN([C@@H](C)CO)C(=O)c2cccc(NC(=O)C3CC3)c2O[C@H]1CN(C)Cc1ccc(C(=O)Nc2ccccc2N)cc1	-4	5
COCC(=O)Nc1ccc2c(c1)C(=O)N(C)C[C@@H](OC)[C@@H](C)CN(Cc1ccncc1)[C@@H](C)CO2	8	9
O=C(Nc1ccc2c(c1)[C@H]1C[C@@H](CC(=O)N3CCc4ccccc4C3)O[C@@H](CO)[C@H]1O2)C1CCC1	16	11
C[C@@H]1CN([C@H](C)CO)S(=O)(=O)c2ccc(-c3ccccc3)cc2O[C@@H]1CN(C)Cc1ccccc1C(=O)O	-4	-16
COc1ccc(S(=O)(=O)N(C)C[C@H]2Oc3c(NS(=O)(=O)c4ccccc4)cccc3C(=O)N([C@H](C)CO)C[C@H]2C)cc1	5	-2
O=C(CC1CC1)Nc1ccc2c(c1)[C@@H]1C[C@H](CC(=O)NC3CCCC3)O[C@@H](CO)[C@@H]1O2	6	7
CC=Cc1ccc2n(c1=O)C[C@@H]1[C@@H](CO)[C@H](C(=O)NCC3CC3)[C@H]2N1Cc1ccccc1F (mixture of isomers)	5	4
COc1ccc(NC(=O)Nc2ccc3c(c2)CC(=O)N([C@H](C)CO)C[C@@H](C)[C@H](CN(C)S(=O)(=O)c2cn(C)cn2)O3)cc1	14	15
CN(C)C(=O)c1cccc(-c2ccc3c(c2)[C@@H]2[C@@H](CCN2C(=O)c2ccncc2)[C@@H](CO)N3C)c1	17	3
CN1C(=O)c2cc(NC(=O)C3CC3)ccc2OC[C@@H]2O[C@@H](CC(=O)NC3CCC3)CC[C@@H]21	7	-6
C[C@H]1CN([C@@H](C)CO)C(=O)c2cc(NC(=O)Cc3cn(C)c4ccccc34)ccc2O[C@@H]1CN(C)C(=O)Nc1ccc2c(c1)OCO2	5	9
COc1ccc2c3c([nH]c2c1)[C@@H](CO)N(C(=O)C1CC1)CC31CN(C)C1	-1	-3
C[C@@H]1CN([C@@H](C)CO)C(=O)c2cc(NS(=O)(=O)c3cccs3)ccc2O[C@@H]1CN(C)C(=O)Nc1ccc(F)cc1	18	12
CC(C)NC(=O)N(C)C[C@@H]1Oc2ncc(C#Cc3ccccc3)cc2C(=O)N([C@H](C)CO)C[C@@H]1C	5	1
C[C@H](CO)N1C[C@H](C)[C@@H](CN(C)C(=O)Nc2cccc(F)c2)Oc2ncc(C#CCN(C)C)cc2C1=O	17	15
COc1cccc(S(=O)(=O)N2CCCCN3[C@H](CO)[C@@H](c4ccc(-c5cccnc5)cc4)[C@@H]3C2)c1	-31	-43
CO[C@@H]1CC[C@H]2CCN(C)C(=O)[C@@H](C)[C@H](OC)CN(C)C(=O)c3cccc(C#N)c3OC[C@@H]1O2	9	7
CO[C@H](CN(C)S(=O)(=O)c1cccc(Cl)c1)[C@H](C)CN(C(=O)Nc1ccccc1F)[C@H](C)CO	-13	-15
